HTT prom inh – Primary qHTS for Identification of Small Molecule Inhibitors of Huntingtin Promoter Activity | HEK293 HTT promoter firefly luciferase reporter (activity 0% = vehicle and -100% = no light), 24 h | Potency, µM (highest dose often 57.5 µM), inactives show at the top dose activity change, negative = inhibition, most hits filed as inhibitors | actives 0.93% (n = 48,000) | AID 1508623, 2021; active = well fitted inhibition curve with a large enough effect; inconclusive = small, poorly fitted or top-dose-only effect; inactive = no such curve, though single readings can be large or run the other way; note: nearly all actives have a fitted effect of over 50% in size
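Firefly luciferase signal from promoter-reporter HEK293 cells was scaled between vehicle (0%) and zero RLU (-100%). Compounds were tested at final concentrations of up to 57.5 uM over 24 h at 37 degrees C. PTC124 at 50 uM final served as control inhibitor.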
PMP22 txn prim – Cell-based coincidence reporter assay to measure PMP22 gene transcription in S16 Pmp22-F2sN cells - Primary screen; S16 Pmp22-F2sN Schwann cells (luciferase reporters placed in the Pmp22 gene), FLuc/NLuc coincidence luminescence, 24 h; Potency, µM (doses to about 57.5 µM), for inactives: at the top dose activity change, negative = inhibition, actives largely listed as inhibitors; actives 2% (n = 43,000); AID 1508649, 2021; active = clear falling dose curves in both reporters; inconclusive = both reporters move, but less clearly or upward; inactive = either reporter flat; the % is the NLuc reporter signal; note: % is set by controls: 0 for no effect and ±100 for the full control effect; some results filed as inactive show a strong effect at the top dose
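Rat S16 Pmp22-F2sN cells, 500-1,000/well in phenol red-free DMEM + 10% FBS, compound-treated 24 h (37C, 5% CO2). Luminescence: FLuc read, Stop&Glo added, NLuc read.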
Active calls of the source: *; u = inconclusive; x = no result given; & = joins results of further samples; [ ] = remark or other dose. Potency is the fitted concentration of half-maximal effect.

The line under a structure holds: HTT prom inh, PMP22 txn prim
- Cc1ccc(S(=O)(=O)N2CCCc3cc(NC(=O)c4cccc(Cl)c4)ccc32)cc1
 : -25%, -8%
- COc1ccc(OCC(=O)N2CCC(c3nc4ccccc4s3)CC2)cc1
 : u, -16%
- Cc1cc(C)n2nc(SCC(=O)Nc3ccccc3C)nc2n1
 : -8%, -7%
- O=C(O)c1ccccc1Nc1cc(Cl)ccc1C(=O)O
 : -4%[25.2 µM], x
- Cc1ccc2c(CNC3CCCCC3)c(C(=O)O)n(Cc3ccc(F)cc3)c2c1
 : -15%, 25%
- O=C(Cn1c(=O)n(-c2ccc(Cl)cc2)c(=O)c2sc3ccccc3c21)NC1CCCC1
 : -8%, u
- COc1ccc(NC(=O)c2cc(C(C)=O)n3ccccc23)cc1
 : 30%, -41%
- O=C(CSc1nc(=O)n(Cc2ccccn2)c2c1CCC2)Nc1ccccc1
 : -28%, -3%
- CC(C)Cn1c(-c2ccc(S(=O)(=O)N3CCCC3)cc2)csc1=Nc1ccccc1
 : u, u
- CCOC(=O)c1cc(OC(=O)c2cc(OC)c(OC)c(OC)c2)n(-c2ccccc2)n1
 : -12%, -1%
- CC1=C(C(=O)Nc2cc(Cl)ccc2C)C(c2sccc2C)n2ncnc2N1 (centres undefined)
 : 0%, -35%
- CCc1ccccc1N(C)S(=O)(=O)c1ccc2[nH]cc(C(=O)NCCOC)c(=O)c2c1
 : u, 0%
- Cc1ccc(S(=O)(=O)CC(=O)N2CCN(c3nc4c(F)cccc4s3)CC2)cc1
 : u, u
- Cc1cccc(CN2CCC(CNc3ncnc4onc(-c5ccc(Cl)cc5)c34)CC2)c1
 : -22%, u
- O=C(CCc1nc(-c2ccccc2F)no1)Nc1cccc(C(F)(F)F)c1
 : u, u
- COc1ccccc1NC(=O)CSc1nc(-c2ccccc2F)nc2cc(=O)[nH]n12
 : -6%, -14%
- CCc1ccc(OCC(=O)NCc2nc(-c3cccc(C)c3)no2)c(Br)c1
 : -15%, -31%
- CCc1ccc(C(=O)COC(=O)C(Cc2c[nH]c3ccccc23)NC(=O)c2ccc(Br)cc2)cc1 (centres undefined)
 : -3%, -15%
- O=c1n(Cc2ccc(F)cc2Cl)c2ccccc2c2nc(-c3ccccc3)nn12
 : -12%, u
- Cc1cc(C)c2c(n1)nn1c(C)c(CCC(=O)Nc3ccc(C)c(Cl)c3)c(C)nc21
 : -6%, -4%
- O=C(Nc1ccc2c(c1)N(C1CCCC1)C(=O)c1ccccc1S2)c1ccc(F)cc1
 : u, u
- COc1ccc(CCNC(=O)CCCn2c(=O)c3cccn3c3ccc(F)cc32)cc1OC
 : -8%, -15%
- CCOc1ccc(NC(=O)C2CCN(S(=O)(=O)c3cc(-c4noc(C)n4)ccc3C)CC2)cc1
 : -10%, -42%
- CCOC(=O)C1CCCN(C(=O)Cn2ncc3c(C)n(Cc4ccccc4Cl)c(C)c3c2=O)C1 (centres undefined)
 : u, -57%
- CCn1cc(C(=O)NCCc2ccc(OC)c(OC)c2)c(=O)c2cc(S(=O)(=O)N(C)C3CCCCC3)ccc21
 : -30%, u
- CCOc1ccc(CNC(=O)CCCn2nc(C)c3c(C)n(-c4ccc(C)cc4)nc3c2=O)cc1
 : -22%, u
- CC(=O)Nc1nonc1-c1nnc(SCC(=O)Nc2ccc(F)cc2F)n1-c1ccccc1
 : 4%, -3%
- Cc1ccccc1OCC(=O)Nc1ccc(-c2nc3ccccc3o2)cc1
 : 27%, u
- O=C(CSc1nc2c(c(=O)[nH]1)CCC2)Nc1ccccc1C(F)(F)F
 : -20%, 1%
- Cc1cc(NC(=O)C2CCCN(S(=O)(=O)c3ccc(Br)s3)C2)ccc1Br (centres undefined)
 : -19%, u
- Cc1cccc(NC(=O)N2CC(=O)Nc3sc4c(c3C2c2ccccc2)CCCC4)c1C (centres undefined)
 : u, u
- CCC(=O)N1CCc2cc(S(=O)(=O)NC(CC(C)C)C(=O)NCc3ccc(F)cc3)ccc21 (centres undefined)
 : -13%, 22%
- Cc1cc(N2CCC(C(=O)Nc3ccc(Cl)cc3)CC2)n2nc(C)c(-c3ccc(Cl)cc3)c2n1
 : -10%, -1%
- O=C(Nc1c(Cl)cncc1Cl)c1ccc(OC(F)F)c(OCC2CC2)c1
 : 4%, x
- Cc1sc2ncn(CC(=O)Nc3ccc(C(F)(F)F)cc3)c(=O)c2c1S(=O)(=O)N1CCN(C)CC1
 : -16%, -3%
- COc1ccc(OC)c(C2C(C(=O)Nc3ccccc3OC)=C(C)Nc3c(C(=O)Nc4ccc(F)cc4)cnn32)c1 (centres undefined)
 : -16%, 4%
- CCN(C(=O)Cn1c(SCC(=O)Nc2ccc(OC)cc2)nc2ccccc21)c1cccc(C)c1
 : u, u
- CCc1ccccc1NC(=O)C(=O)NCCCN1CCOCC1
 : -7%, 6%
- NS(=O)(=O)c1cc2c(cc1Cl)NCNS2(=O)=O
 : 3%&0%, x
- CCCCS(=O)CC(O)CSc1nc(-c2ccc(OC)cc2)cc(-c2ccccc2)c1C#N (centres undefined)
 : u, -13%
- O=C(NCCCN1CCN(c2cccc(Cl)c2)CC1)c1nnc(Cc2ccc(F)cc2Cl)o1
 : u, 19µM*
- CCOc1ccc(N(C(=O)CC(C)C)S(=O)(=O)c2ccc3c(c2)oc(=O)n3C)cc1
 : u, -15%
- Cc1ccc(-n2nc3ccc(NC(=O)c4cc5ccccc5o4)cc3n2)cc1
 : 31%[activator], -18%
- COc1ccc(N2CC(NC(=O)/C=C\c3ccc4c(c3)OCO4)CC2=O)cc1 (centres undefined)
 : u, 1%
- Cc1nn(CC(=O)N2CCC(C)CC2)c(=O)c2cc3sccc3n12
 : -1%, -18%
- CC(C)(C)C1CCc2onc(C(=O)Nc3sc4c(c3C(N)=O)CCCC4)c2C1 (centres undefined)
 : 6%, -5%
- Brc1cccc(-c2nnn3c2nc(NC2CCCCC2)c2ccccc23)c1
 : -11%, u
- CCCCCSc1nnc2c(n1)[nH]c1c(C)cccc12
 : -26%, u
- COc1ccc(OC)c(NC(=O)c2cnn(-c3ccc(C)cc3)c2C2CCNCC2)c1
 : -1%, -11%
- CC(C)OCCCNC(=O)CN1C(=O)COc2ccc(S(=O)(=O)N3CCCCCC3)cc21
 : -3%, -13%

Arranged by length of the SMILES (falling): three of the compounds above.
The line under a structure holds: HTT prom inh, PMP22 txn prim
- CCn1cc(C(=O)NCCc2ccc(OC)c(OC)c2)c(=O)c2cc(S(=O)(=O)N(C)C3CCCCC3)ccc21
 : -30%, u
- O=C(Cn1c(=O)n(-c2ccc(Cl)cc2)c(=O)c2sc3ccccc3c21)NC1CCCC1
 : -8%, u
- O=C(NCCCN1CCN(c2cccc(Cl)c2)CC1)c1nnc(Cc2ccc(F)cc2Cl)o1
 : u, 19µM*

Continuation:
The line under a structure holds: HTT prom inh, PMP22 txn prim
- COc1ccc(CCC(=O)NC2CC(=O)N(c3ccc(C)c(C)c3)C2)cc1 (centres undefined)
 : -13%, 21%
- Cc1ccc(CNC(=O)c2cnn3c(C)c(Cc4c(F)cccc4Cl)c(C)nc23)cc1
 : -9%, -14%
- CCOC(=O)CSc1nc2sc3c(c2c(=O)n1-c1ccc(OC)cc1)CC(C(C)C)OC3 (centres undefined)
 : -3%, -2%
- COc1ccccc1C(=O)Nc1cccc(C(=O)OCc2cc(=O)n3nc(C4CC4)sc3n2)c1
 : -7%, 6%
- O=C(Nc1ccc(F)c(Cl)c1)C1CCN(S(=O)(=O)c2ccc3[nH]c(=O)ccc3c2)CC1
 : u, -26%
- Cc1ccc(COC(=O)c2ccc(-c3nnn(Cc4ccc(C)cc4)n3)cc2)cc1
 : 1%, 21%
- Cc1cc(C)cc(C(=O)Nc2nnc3n2CCS3)c1
 : 15%, u
- NCCNc1cccc2ccccc12
 : -12%, x
- COc1cccc(C(=O)Nc2nc(-c3nnn(-c4cccc(Cl)c4C)c3C)ns2)c1
 : u, u
- CCc1nnc(NC(=O)c2nc(SCc3cccc(C)c3)ncc2Cl)s1
 : -17%, 2%

Reformatted as labelled records: entries from further up.
COc1ccccc1C(=O)Nc1cccc(C(=O)OCc2cc(=O)n3nc(C4CC4)sc3n2)c1
  HTT prom inh: -7%
  PMP22 txn prim: 6%

O=C(Nc1ccc(F)c(Cl)c1)C1CCN(S(=O)(=O)c2ccc3[nH]c(=O)ccc3c2)CC1
  HTT prom inh: u
  PMP22 txn prim: -26%

(next part)
The line under a structure holds: HTT prom inh, PMP22 txn prim
- CCCOc1cccc(C2c3c(-c4ccccc4O)n[nH]c3C(=O)N2Cc2ccco2)c1 (centres undefined)
 : u, u
- CCOC(=O)CSc1nc2c(sc3cccc(F)c32)c(=O)n1Cc1ccc(OC)cc1
 : -8%, -19%
- CCCCNc1nc2c(-c3cccc(Br)c3)nnn2c2ccccc12
 : 8%, -19%
- Cc1cccc(CNC(=O)CN2C(=O)CCCc3ccccc32)c1
 : 18%, 5%
- O=C(Cn1c(=O)nc(-c2ccccc2)c2ccccc21)NCc1ccc(Cl)cc1
 : u, u
- CSc1ncc(C(=O)N2CCN(c3cc(Cl)ccc3C)CC2)c(C)n1
 : u, -15%
- CCc1cc(C(=O)NCc2ccc(F)cc2)no1
 : 22%, 15%
- Cc1cc(C)n(-c2nc(C)c(C)c(=O)n2CC(=O)Nc2ccc(Cl)c(Cl)c2)n1
 : -10%, -1%
- Clc1cccc(-c2csc(-c3nc(-c4ccc(Br)s4)cs3)n2)c1
 : -4%, 0%
- c1ccc(-c2nnc(CN3CCN(c4ccccn4)CC3)o2)cc1
 : 4%, -3%
- CCOC(=O)c1ccc(NC(=O)C(CC)Sc2nnc3c4ccccc4n(C)c3n2)cc1 (centres undefined)
 : -4%, 1%
- COC(=O)c1ccc(NC(=O)N2CCC(CN3CCc4ccccc4C3)CC2)cc1
 : -31%, 16%
- CCCCNc1oc(-c2ccc(COc3ccccc3C)o2)nc1C#N
 : u, -12%
- CCOC(=O)N1CCN([N+]([O-])=NOc2ccc([N+](=O)[O-])cc2[N+](=O)[O-])CC1
 : u, x
- O=C(c1ccccc1)n1nc(-c2ccccc2)nc1NCc1ccc(F)cc1
 : -8%, u
- CCOc1ccc(NC(=O)Cn2c(=O)n(CC3CCC(C(=O)NCCc4ccccc4)CC3)c(=O)c3ccccc32)cc1 (centres undefined)
 : -9%, 2%
- COc1cc2nc(NCCC(C)C)n3nc(-c4ccccc4)nc3c2cc1OC
 : -9%, -5%
- Cc1ccc(CNC(=O)c2oc3ccc(S(=O)(=O)N4CCC(C)CC4)cc3c2C)cc1
 : u, -2%
- CCOc1ccc(CCNc2nc3c(-c4ccc(C)cc4)nnn3c3ccccc23)cc1OCC
 : -14%, -12%
- Cc1cn2c(=O)c(S(=O)(=O)Nc3ccc(N4CCOCC4)cc3)c(C)nc2s1
 : 4%, -37%
- Cc1ccc(NC(=O)CSc2nc3ccccc3c(=O)n2CCC(=O)NC2CCCCC2)cc1C
 : -8%, -27%
- CCCC(=O)Nc1ccc(NC(=O)c2sc3ccccc3c2Cl)cc1
 : -14%, -17%
- Cc1cccc(C(=O)Nc2nc(-c3nnn(-c4cc(F)ccc4F)c3C)ns2)c1
 : u, -15%
- CCOc1ccc(CN2CCN(Cc3ccc4c(c3)c3ccccc3n4CC)CC2)cc1
 : 32µM*, u
- COc1ccc(C(=O)N(Cc2cc(OC)c(OC)c(OC)c2)C2CCS(=O)(=O)C2)cc1Cl (centres undefined)
 : -9%, 9%
- O=C(NCCn1cc(SCc2ccc(F)cc2)c2ccccc21)c1c(F)cccc1F
 : u, u
- Cc1ccc(-c2nnc(Nc3ccc(O)cc3)c3ccccc23)cc1S(=O)(=O)N1CCCCC1
 : u, u
- COc1ccc(-c2cc(C(F)(F)F)nc(SCCC(=O)Nc3ccc(O)cc3)n2)cc1
 : u, -29%
- CCOc1ccc(-c2nnc(SCC(=O)Nc3cc(C)ccc3OC)o2)cc1
 : u, -30%
- CCCN1C(C(=O)c2ccccc2)=C(OC(=O)COc2ccccc2)c2ccccc2S1(=O)=O
 : u, u
- Cc1ccc(NC(=O)C(=O)NCC(c2ccc3c(c2)OCO3)N2CCOCC2)c(C)c1 (centres undefined)
 : -9%, 3%
- COc1ccc(-c2nc(CCNC(=O)c3cccs3)cs2)cc1OC
 : u, -26%
- Cc1ccc(NC(=O)C2CCN(c3nn4c(=O)cc(C)nc4s3)CC2)cc1
 : -13%, -15%
- Cc1ccc2nc(-c3cc(NC(=O)c4ccc5c(c4)OCCO5)ccc3Cl)oc2c1
 : -6%, u
- CC(=O)Nc1nonc1-c1nnc(SCC(=O)Nc2ccccc2Cl)n1C
 : -10%, 5%
- CCC(=O)N1CCc2cc(Br)cc(S(=O)(=O)N3CCN(c4ccc(C(C)=O)cc4)CC3)c21
 : -3%, -30%
- Cc1cccc(C)c1Nc1c(-c2ccsc2)nc2cccc(C)n12
 : -37%, u
- Cc1ccc2c(c1)Cc1c(nc(-c3ccc(F)cc3)nc1SCC(=O)N1CCCCC1)O2
 : -12%, -8%
- Clc1ccc(-c2nc3c4cnn(-c5ccccc5Br)c4ncn3n2)c(Cl)c1
 : 8%, 4%
- COc1ccccc1NC(=O)c1cc2c(C)nn(-c3ccccc3)c2s1
 : -1%[11.5 µM], u
- CCOC(=O)Cn1c(=O)n(C2CCCCC2)c2nc(-c3ccc(C(C)C)cc3)nc(C(N)=O)c21
 : -7%, -28%
